D2 ag = activates the human D2 dopamine receptor; actives 0.084% (n = 360,000); DiscoveRx PathHunter D2 beta-arrestin, luminescence, 90 min; 100% = 57 uM dopamine signal; AID 624465; P14416; activation, % (concentration not given with the values); in the data active = activation above about 40%; inconclusive = about 15% to 40%; inactive = below about 15%; further: compound concentration not given in the record; the text of the record calls up to 30% inactive
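DiscoveRx PathHunter D2 beta-arrestin cells (2,100/well) attached overnight, then compound-stimulated 90 min at 37 C in HBSS/10 mM HEPES/0.1% Tween-20 buffer; beta-galactosidase complementation read by luminescence after 1 h at ambient temperature. Dopamine 57 uM final (EC100) as control.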
gsp antagonist = antagonists of gsp mutant (McCune-Albright syndrome). actives 0.4% (n = 340,000). Potency, µM (titrated, usually from 76.9 µM), for inactives: at the highest dose activity change, negative = inhibition, actives largely listed as inhibitors. AID 624288. gsp-mutant cells, cAMP HTRF, 30 min; control for the full effect not named in the record; active = falling curve of any shape with a large fitted effect; inconclusive = falling curve, mostly with a smaller effect; inactive = flat or rising curve; cell line not stated here;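 further: intracellular cAMP measured with PDE inhibitor Ro 20-1724 present during compound exposure; potency means the concentration at half of the fitted maximal effect; on the % scale 0 is the no-effect control and ±100 the full control effect; nearly all actives have a fitted effect of over 65% in size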
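HTRF cAMP measurement after 30 min RT detection following 30 min, 37C compound treatment alongside […] (added as 300 uM solution) in G418-selected cells seeded at 2000/well and grown 16–24 h.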
D2 PAM = positive allosteric modulators of human D2 dopamine receptor; potentiation, % (test concentration not listed); DiscoveRx D2 beta-arrestin cells, luminescence, 90 min; 100% = 57 uM dopamine signal; actives 0.23% (n = 360,000); AID 624464; P14416; active = potentiation of 50% or more; inconclusive = 30% to 50%; inactive = 30% or less;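 further: compound concentration not given in the record; tested on top of an EC20 dose of dopamine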
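PathHunter beta-arrestin assay in DiscoveRx D2 cells. Compounds were added with an EC20 of dopamine (50 nM final) for 90 min at 37 deg C. Luminescence was read 1 h after detection reagent, with 57 uM dopamine as the EC100 control.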
Six1-Eya2 inh = blocks human Six1 binding to Eya2; Q15475+O00167; AlphaScreen GST-Six1/His-Eya2 binding, biochemical; hits give low values; control for the full effect not named in the record; activity change, % (no concentration beside the values); actives 0.56% (n = 360,000); AID 651725; in the data active = activity change below about -65%; inconclusive = about -30% to -65%; inactive = above about -30%; further: on the % scale 0 is the no-effect control and ±100 the full control effect; compound concentration not given in the record
Target sequence (O00167 whole entry, looked up): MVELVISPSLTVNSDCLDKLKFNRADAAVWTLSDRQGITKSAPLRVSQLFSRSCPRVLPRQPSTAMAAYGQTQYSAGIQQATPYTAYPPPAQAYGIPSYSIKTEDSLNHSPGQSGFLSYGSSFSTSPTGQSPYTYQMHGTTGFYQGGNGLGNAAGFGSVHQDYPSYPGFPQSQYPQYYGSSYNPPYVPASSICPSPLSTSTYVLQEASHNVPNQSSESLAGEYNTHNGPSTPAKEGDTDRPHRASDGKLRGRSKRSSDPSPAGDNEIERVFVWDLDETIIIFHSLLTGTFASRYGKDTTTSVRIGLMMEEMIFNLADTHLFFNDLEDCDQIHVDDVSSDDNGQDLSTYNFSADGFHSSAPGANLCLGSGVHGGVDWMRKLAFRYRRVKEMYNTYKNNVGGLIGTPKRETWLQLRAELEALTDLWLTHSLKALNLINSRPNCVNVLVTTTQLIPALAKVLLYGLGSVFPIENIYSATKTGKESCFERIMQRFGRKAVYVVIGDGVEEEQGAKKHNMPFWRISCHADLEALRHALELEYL
Target sequence (Q15475 whole entry, looked up): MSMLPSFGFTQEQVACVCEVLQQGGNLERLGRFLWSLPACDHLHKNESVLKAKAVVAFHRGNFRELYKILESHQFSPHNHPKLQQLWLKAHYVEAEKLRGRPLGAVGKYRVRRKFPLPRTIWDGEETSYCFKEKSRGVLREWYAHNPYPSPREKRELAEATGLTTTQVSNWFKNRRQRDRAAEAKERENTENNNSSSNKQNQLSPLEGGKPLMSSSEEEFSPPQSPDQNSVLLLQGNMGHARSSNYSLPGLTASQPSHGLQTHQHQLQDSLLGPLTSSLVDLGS
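Compounds are tested against tagged Six1 and Eya2 proteins bridged by glutathione donor and nickel acceptor beads; after a one-hour incubation at 37 °C without light, AlphaScreen emission is recorded.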
CtBP-E1A inh = blocks the CtBP interaction with E1A | AlphaScreen GST-E1A/His-CtBP binding, 1536-well; hits give low values; control for the full effect not named in the record | actives 0.49% (n = 340,000) | activity change, % (no concentration beside the values); in the data active means activity change below about -65%; inconclusive means about -30% to -65%; inactive means above about -30%; further: on the % scale 0 is the no-effect control and ±100 the full control effect; compound concentration not given in the record
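Steps: dispense buffer (Tris pH 8.0, NaCl 300 mM, TCEP 1 mM, BSA, Tween 20); add 5X protein mix (GST-E1A, His-CtBP, 125 nM each); pin 23 nL compound; 2 h at 37 °C, dark; add 5X beads (50 ug/mL); 1 h; read.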
gsp ag = agonists of gsp mutant (McCune-Albright syndrome); gsp mutant cells, cAMP HTRF, 30 min; control for the full effect not named in the record; Potency, µM (highest dose often 76.9 µM), inactives show at the highest dose activation (cAMP increase), usual class: activators; actives 0.13% (n = 340,000); active = well fitted activation curve with a large enough effect; inconclusive = small, poorly fitted or top-dose-only effect, or another doubt; inactive = no such curve, though single readings can be large or run the other way; cell line not stated here;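 further: phosphodiesterase inhibitor Ro 20-1724 added with compounds to block cAMP breakdown; potency means the concentration at half of the fitted maximal effect; nearly all actives have a fitted effect of over 60% in size; about a fifth of the inactives were tested at one dose only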
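Cells stably selected in G418 were plated at 2000/well, grown 16-24 hr, then given compounds in DMSO with the PDE inhibitor […] (300 uM solution added) for 30 min at 37C; cAMP was read by HTRF.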
* hit, by the source's call; ? = inconclusive; nt = no result given; [ ] = dose if it differs, or a comment. Not a hit list; 1.4% or so of the library scored in one or more.

SMILES	D2 ag	gsp antagonist	D2 PAM	Six1-Eya2 inh	CtBP-E1A inh	gsp ag
O=C(c1cc(F)c(F)cc1Cl)N1CCN(CCc2ccccc2)CC1	0.7	12%	-9	0	4	?
CC1CCCC(C)N1C(=O)COc1ccc(F)cc1 (configuration not stated)	7.4	5%	-2	14	4	-27%
Cc1cc(C(=O)CSc2nc3ccccc3o2)c(C)n1CC1CCCO1 (configuration not stated)	-2.1	-13%	-6	0	-8	-17%
Cc1ccc(/C=C(\C#N)C(=O)NC(C)C)o1	2.7	3%	-21	2	-6	-2%
COc1ccccc1NC(NC(=O)c1cccnc1)C(Cl)(Cl)Cl (configuration not stated)	3.1	-12%	-8	3	6	-41%[inhibitor]
CC(=O)Nc1ccc(-c2nnc(SCC(=O)NCc3ccco3)n2C)cc1	-3.5	-6%	-12	3	1	0%
C=CCNC(=O)CN(Cc1ccccc1)S(=O)(=O)c1ccccc1	-0.6	-5%	1	8	-2	-35%[inhibitor]
CCOc1cc(C(=O)NC)cc(Br)c1OC	-3.1	-3%	-12	0	5	?
Brc1ccc2nc(-c3ccco3)c(Cc3ccsc3)n2c1	-5.4	nt	-3	?	0	nt
COC(=O)c1ccc(Cl)c(NC(=O)CN(c2ccc(OC)cc2)S(=O)(=O)c2ccccc2)c1	-0.2	-15%	0	8	-3	16%
CCCCN(C(=O)CC1CCCC1)c1c(N)n(CC(C)C)c(=O)[nH]c1=O	3.6	3%	3	16	-20	-42%[inhibitor]
COc1ccc(CNCc2c(O)c(Cl)cc3c(C)c(C)c(=O)oc23)c(OC)c1	-1.0	0%	-12	5	14	-2%[15.4 µM]
CCOC(=O)CSc1nnc(NC(=O)c2cccc(S(=O)(=O)N3CCCCC3)c2)s1	-1.8	-21%	-7	20	44	-23%
CCCCNC(=S)N/N=C/c1cc(C)ccc1C	-0.9	4%	-17	1	11	-25%
CCOC(=O)CSc1nnc(CNC(=O)c2cccs2)n1CCc1ccccc1	-2.6	-13%	-6	1	-2	20%
Cc1ccc(Sc2c([N+](=O)[O-])c(C)nn2C)cc1	1.2	-3%	-9	7	4	11%[15.4 µM]
OC(CNCC1COc2ccccc2O1)COCc1cccs1 (configuration not stated)	-3.0	11%	-14	3	3	?
Nc1c2c(nc3ccccc13)CSCC2	-3.7	1%	-14	5	-2	18%[15.4 µM]
Cc1sc(NC(=O)c2ccco2)c(C(c2cccnc2)N2CCCC2)c1C (configuration not stated)	-0.6	-25%	3	-20	-7	9%
O=C(CCN1C(=O)/C(=C/c2ccccc2)SC1=S)NNC(=O)c1cccnc1	1.5	?	15	1	-2	-31%[inhibitor]
COc1ccc(OC)c2[nH]c(=O)c(CCNC(=O)c3ccc(S(=O)(=O)N4CCCCC4)cc3)cc12	1.6	6%	10	1	7	-40%[inhibitor]
CCNC(=O)C1CCCN1S(=O)(=O)c1ccc(C)cc1 (configuration not stated)	0.0	2%	-4	4	24	0%
CCCn1nc([N+](=O)[O-])c(C(C#N)c2nc3ccccc3o2)c(Cl)c1=O (configuration not stated)	-7.3	?	-33	?	-24	-43%[inhibitor]
COC(=O)CN(CCc1ccccc1)S(=O)(=O)c1ccc(OC)c(OC)c1	1.1	-3%	1	8	7	-26%
CCC(C)(C)n1nnnc1CN1CCC(NC(=O)c2ccc(Br)cc2)CC1	-4.2	-9%	-18	-8	-3	12%
Cc1nonc1CN(C)C(=O)CC1C(=O)NCCN1Cc1ccccc1C(F)(F)F (configuration not stated)	4.2	4%	11	1	12	-11%
Clc1nc(NCc2cccnc2)nc(N2CCOCC2)n1	-1.6	5%	-14	3	-20	-5%
Cc1ccc(CSc2ncn(-c3ccccc3)n2)cc1	-1.3	3%	-22	14	-1	-39%[inhibitor]
O=C1OC(Nc2nccs2)c2ccccc21 (configuration not stated)	-0.5	7%	-9	8	3	-10%
Cc1cc(C)cc(N2C(=O)C3NN=C(C(=O)OCc4ccccc4)C3C2=O)c1 (configuration not stated)	-11	3%	0	0	-8	9%[15.4 µM]

Only gsp ag and gsp antagonist, for some of the entries so far:
Molecule	gsp ag	gsp antagonist
COc1ccc(OC)c2[nH]c(=O)c(CCNC(=O)c3ccc(S(=O)(=O)N4CCCCC4)cc3)cc12	-40%[inhibitor]	6%
CCNC(=O)C1CCCN1S(=O)(=O)c1ccc(C)cc1 (configuration not stated)	0%	2%
CCCn1nc([N+](=O)[O-])c(C(C#N)c2nc3ccccc3o2)c(Cl)c1=O (configuration not stated)	-43%[inhibitor]	?
COC(=O)CN(CCc1ccccc1)S(=O)(=O)c1ccc(OC)c(OC)c1	-26%	-3%
CCC(C)(C)n1nnnc1CN1CCC(NC(=O)c2ccc(Br)cc2)CC1	12%	-9%
Cc1nonc1CN(C)C(=O)CC1C(=O)NCCN1Cc1ccccc1C(F)(F)F (configuration not stated)	-11%	4%

Complete entries from above. Order of screens: D2 ag | gsp antagonist | D2 PAM | Six1-Eya2 inh | CtBP-E1A inh | gsp ag
COC(=O)CN(CCc1ccccc1)S(=O)(=O)c1ccc(OC)c(OC)c1 as listed: 1.1 | -3% | 1 | 8 | 7 | -26%
CCCn1nc([N+](=O)[O-])c(C(C#N)c2nc3ccccc3o2)c(Cl)c1=O (configuration not stated) as listed: -7.3 | ? | -33 | ? | -24 | -43%[inhibitor]

Later entries.
SMILES	D2 ag	gsp antagonist	D2 PAM	Six1-Eya2 inh	CtBP-E1A inh	gsp ag
NC(=O)c1ccsc1NC(=O)CSc1n[nH]c(N)n1	-4.3	11%	-11	7	-4	-6%[15.4 µM]
COc1ccc(OCC(=O)O/N=C(\N)Cc2ccc(Cl)cc2)cc1	-1.7	-27%	0	25	27	15%
CCCC(C(=O)NC1CCCC1)N(CC1CCCO1)C(=O)CNS(=O)(=O)c1ccc(F)cc1 (configuration not stated)	-3.6	4%	-1	5	-4	7%[15.4 µM]
Cc1cc(Cl)ccc1Oc1ncnc2onc(C)c12	12	-4%	-3	5	nt	9%
COc1ccccc1COC(=O)c1ccc(S(=O)(=O)N2CCOCC2)cc1	-1.2	-16%	5	6	nt	-1%
Cc1cc(C)n(CC(=O)NC2CCCCC2C)c(=O)c1C#N (configuration not stated)	-1.9	11%	-3	-1	0	-1%[15.4 µM]
COc1cc(CN2CCCCCC2)c([N+](=O)[O-])cc1OC	-1.6	0%	-19	-2	nt	-14%
COc1ccc(NC(=O)CCC(=O)Nc2nnc(C3CCCCC3)s2)cc1	0.7	11%	-6	-3	1	?
C/C(=N\NC(=O)COc1ccc(C(C)(C)C)cc1)c1ccc2c(c1)OCCO2	-9.1	-25%	3	-13	0	23%
O=C(c1ccco1)N1CCN(c2nc3ccccc3c(=O)n2-c2ccccc2)CC1	-4.7	-12%	2	-16	-18	16%
COc1ccc(N2CCN(C(c3cccs3)C(C)NS(=O)(=O)c3ccccc3)CC2)cc1 (configuration not stated)	2.3	-8%	-6	?	-13	-32%[inhibitor]
O=C(O)c1ccc2c(c1)ncn2C1CCCCC1	-1.6	-19%	6	4	0	-15%
O=C(COC(=O)c1ccc(NS(=O)(=O)c2cccs2)cc1O)Nc1ccc(F)cc1	0.8	-28%	-2	2	0	1%[15.4 µM]
O=C(COC(=O)c1cccc2ccccc12)Nc1ncc(C(F)(F)F)cc1Cl	0.1	4%	-7	4	16	6%
COc1ccc(C2C3=C(OC(C)=O)c4ccccc4C3=Nc3c2c(=O)n(C)c(=O)n3C)cc1 (configuration not stated)	0.2	-5%	3	2	-1	-2%
CC[N+](CC)(CC)CCCCOc1ccc2c(c1)C(=O)c1cc(OCCCC[N+](CC)(CC)CC)ccc1-2	-6.1	?	-3	-2	nt	18%
COc1ccc(C(=O)OCc2cc3cccc(C)c3[nH]c2=O)cc1	-0.5	3%	0	0	3	0%
O/N=C1\CCCc2ccccc21	2.4	11%	-3	-1	6	-14%[15.4 µM]
CCN1CCN(Cc2ccc(NC(=O)c3ccc(C)c(NC(=O)c4nccnc4N)c3)cc2C(F)(F)F)CC1	2.9	14%	-23	11	nt	2%
CC(C)CSc1nc2c(c(=O)[nH]c(=O)n2C)n1CCc1ccccc1	0.8	3%	-32	7	13	2%
O=C(NCCCN1CCN(C2CCCCC2)CC1)Nc1ccccc1C(F)(F)F	0.2	10%	-4	13	-1	13%
O=C(COc1ccccc1)NC(Cc1c[nH]c2ccccc12)C(=O)O (configuration not stated)	-0.2	-10%	2	5	0	-56%[inhibitor]
CCOc1nc(-c2ccccc2)ccc1-c1noc(-c2cccs2)n1	-0.7	7%	-3	1	5	-18%
Cc1nn(C)c(C)c1NC(=O)CCCSc1nc(-c2ccco2)cc(C(F)(F)F)n1	0.8	6%	-1	0	5	6%
COC(=O)c1c(C)oc2c1cc(NS(=O)(=O)c1cccs1)c1ccccc12	1.5	-30%	0	-7	-15	10%
COc1ccc(CCNC(=O)c2cc(S(=O)(=O)N3CCCC3)cn2C)cc1OC	-0.3	0%	-2	2	5	7%
O=C(COC(=O)CNC(=O)c1ccc(F)cc1)NC1CCCc2ccccc21 (configuration not stated)	6.2	-4%	-13	-5	nt	-63%[inhibitor]
CCOc1ccc(N(CC(=O)Nc2ccc(OC)cc2OC)S(=O)(=O)c2c(C)[nH]c(=O)[nH]c2=O)cc1	1.5	4%	-7	-85*	-92*	26%

Some of the entries above in a different format:
> Cc1nn(C)c(C)c1NC(=O)CCCSc1nc(-c2ccco2)cc(C(F)(F)F)n1
  D2 ag: 0.8	gsp antagonist: 6%	D2 PAM: -1	Six1-Eya2 inh: 0	CtBP-E1A inh: 5	gsp ag: 6%
> COC(=O)c1c(C)oc2c1cc(NS(=O)(=O)c1cccs1)c1ccccc12
  D2 ag: 1.5	gsp antagonist: -30%	D2 PAM: 0	Six1-Eya2 inh: -7	CtBP-E1A inh: -15	gsp ag: 10%
